From PubChem BioAssay
NPYLR7 agonist: activates Aedes aegypti NPYLR7 receptor; 270,000 tested, 0.15% active; HEK293T NPYLR7/Galpha15, GCaMP6s calcium fluorescence; activation, % at 10 µM; in the data active = activation above about 40%;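 also: 0% = vehicle and 100% = reference agonist at the receptor; some compounds past the cut are filed as inactive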
NPYLR7 agonist max-min: second read-out of NPYLR7 agonist, no call of its own (marks repeat the call); activation, %; measured here: Max-Min RFU normalised activation; some inactives read as strong as hits;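 span of the calcium signal over five minutes; 0% = vehicle and 100% = native peptide agonist; compound fluorescence can raise it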
Active calls of the source: *; & = joins results of further samples. These rows are one share of the data; rates above refer to the full screens.

SMILES | NPYLR7 agonist | NPYLR7 agonist max-min
CCOC(=O)C1CCN(C(=O)c2cc3cccnc3n(C(C)C)c2=O)CC1 | -3 | -2
Fc1ccc(CCNC(=S)NC2CC2)cc1 | 2 | 1
CC1CCCCC12NN=C1SCC(=O)N1N2 (centres undefined) | 3 | -5
O=[N+]([O-])c1nn(-c2ccc3c(c2)OCCO3)n(O)c1=Nc1ccc(Cl)cc1 | -4 | -11
Cc1cccc(-c2nc3scc(CCNC(=O)Cc4ccccc4)n3n2)c1 | 6 | 3
COc1cccc(CCNC(=O)Cn2cnc(C(C)C)cc2=O)c1 | 14 | 7
COc1ccc(NC(=O)CN2CCc3sccc3C2C)cc1OC (centres undefined) | 8&12 | 6&8
CCOC(=O)C1=C(C)NC2=C(C(=O)CCC2)C1c1ccc(SC)cc1 (centres undefined) | 3 | 0
C=C(C)CSc1nc2c(c(=O)n(C)c(=O)n2C)n1Cc1ccccc1Cl | -6 | -9
Cc1c[nH]c(=O)n1-c1cccc(NCc2cccc3c2N(C(=O)OC(C)(C)C)CC3)c1 | 2 | 0
C=CCN(C)[C@H]1[C@H](O)C[C@@H]2CC(C)(C)OC[C@]21O | 8 | 17
c1ccc(NC2CCCN(C3C4CC5CC(C4)CC3C5)C2)cc1 (centres undefined) | 6&-2 | 5&-4
CCOC(=O)c1cnc(-c2ccc(OC)c(OC)c2)nc1NCC1COc2ccccc2O1 (centres undefined) | 4 | -1
COc1ccc(Oc2ccc(C(=O)N[C@H]3CCCC[C@@H]3O)cc2)cc1 | 8 | 1
COc1ccc(-c2csc(=Nc3ccccc3OC)n2Cc2cccc(OC)c2)cc1 | -6 | -11
Cn1cc(CNCCCn2ncc3ccccc32)c(-c2ccccc2F)n1 | 1 | -3
O=C(Cc1cccs1)NCCN1C(=O)SC(=Cc2cccs2)C1=O | 4 | 2
C=CCSc1nc2ccccc2[nH]1 | 4 | 1
CCOc1cc2cc(C(=O)c3ccccc3O)cnc2cc1OC | 6 | 2
CC(C)(Oc1ccc(Cl)cc1)C(=O)N1CC(=O)N2CCc3ccc(Cl)cc3C2C1 (centres undefined) | -1 | 14
CC(CN1CC(C)OC(C)C1)CN1CC(C)OC(C)C1 (centres undefined) | 7 | 3
CC(C)c1c(C(=O)N2CCN(C3CCOC3)CC2)cnn1-c1cccc(Cl)c1 (centres undefined) | 0 | 0
COc1ccc(C2CN(Cc3ccc(F)c(F)c3)CC2CN(Cc2ccc(F)cc2)C(C)=O)cc1 (centres undefined) | 4 | 2
O=C(CSc1ncnc2c1nnn2Cc1ccccc1F)NCc1ccccc1 | 17 | 15
O=c1ccc(S(=O)(=O)N2CCCC2)cn1Cc1csc(Nc2ccccc2)n1 | 12 | 7
Next structures follow.
SMILES | NPYLR7 agonist | NPYLR7 agonist max-min
COc1c(C)cnc(CN(C)Cc2nc(-c3ccco3)oc2C)c1C | -1 | -6
Cc1ccc(-c2ccc(C(=O)NCCc3cnc[nH]3)cc2)o1 | 0 | -1
COc1ccc(-c2c(C)[nH]c(=O)[nH]c2=O)c2ccc(C)nc12 | -4 | -8
CCOC(=O)N1CCN(C2CCCN(C(=O)c3ccc(COC)o3)C2)CC1 (centres undefined) | 5 | 5
Cc1csc2cc(C(=O)Nc3ccc(N(C)C)cc3)cnc12 | -2 | -4
CCOC(=O)[C@@H]1CN(C(=O)c2csc(-c3cccs3)n2)[C@H]2c3cccc(C)c3O[C@@H]12 | 1 | 11
COc1ccc(NC(=O)C2(N3Cc4ccc(-c5ccnn5C)nc4C3=O)CC2)cc1 | 11 | 30
CO[C@H]1CN(C(=O)c2cc(C)nc3c(C)c(C)ccc23)CC[C@H]1N | 10 | 7
COC(=O)C1CC(=O)N(Cc2ccc(OC)cc2)C1 (centres undefined) | 7 | 12
N[C@@H]1CC[C@@H](NS(=O)(=O)N2CCOCC2)C1 | 6 | 4
CCC1CN(CCNC(=O)Cn2ncc3ccccc32)Cc2cc(OC)ccc2O1 (centres undefined) | -6 | -8
Cc1c(C(=O)N(Cc2ccncc2)C2CCN(C)CC2)[nH]c2ccc(F)cc12 | 2 | 1
COc1ccc2nc(-c3ccc(NC(=O)C4c5ccccc5Oc5ccccc54)cc3)cn2n1 | -7 | -12
CCCc1cn(CC2CCN(C(=O)C3COc4ccccc4C3)CC2)nn1 (centres undefined) | -1 | -1
c1ccc2c(c1)CCCC2=NNc1nncc2ccccc12 | 1 | 6
CCOC(=O)c1cc(-c2ccc(N3CCN(C(=O)c4ccc(OC)c(OC)c4)CC3)cc2)n(-c2ccc(F)cc2)n1 | 23 | 9
Cn1cnnc1SCC(=O)n1c2c(c3ccccc31)CCCC2 | -1 | -1
COc1ccccc1Cn1c(C)c(C(=O)NC2CCCC2)sc1=O | 3 | -1
O=C(NN=Cc1cccc(O)c1)c1cc(-c2ccc3c(c2)OCO3)n[nH]1 | 0 | 4
O=C(CCc1nnc(-c2ccc(-c3ccccc3)cc2)o1)NCc1cccc(-n2cccn2)c1 | 2 | -2
O=C(COC(=O)c1ccc(O)cc1)c1ccc(NC(=O)c2ccco2)cc1 | 15 | 18
C=CCO[C@H]1[C@H](NC(=O)CSC)c2ccccc2C12CCN(Cc1cccc3cnccc13)CC2 | 18 | 5
CC1(C(=O)NS(=O)(=O)c2ccc(F)cc2F)CCN1C(=O)c1cccc(F)c1 (centres undefined) | 0 | -1
Nc1nc(Nc2ccccc2)cc(N2CCC(C(=O)NC3CCc4ccccc43)CC2)n1 (centres undefined) | -1 | -2
COc1ccccc1CCNC(=O)c1ccccc1N1CCC(NS(=O)(=O)c2ccc(C)cc2)CC1 | 1 | 4

Copied from the results shown, six compounds:
SMILES | NPYLR7 agonist | NPYLR7 agonist max-min
COc1ccccc1Cn1c(C)c(C(=O)NC2CCCC2)sc1=O | 3 | -1
O=C(NN=Cc1cccc(O)c1)c1cc(-c2ccc3c(c2)OCO3)n[nH]1 | 0 | 4
O=C(CCc1nnc(-c2ccc(-c3ccccc3)cc2)o1)NCc1cccc(-n2cccn2)c1 | 2 | -2
O=C(COC(=O)c1ccc(O)cc1)c1ccc(NC(=O)c2ccco2)cc1 | 15 | 18
C=CCO[C@H]1[C@H](NC(=O)CSC)c2ccccc2C12CCN(Cc1cccc3cnccc13)CC2 | 18 | 5
CC1(C(=O)NS(=O)(=O)c2ccc(F)cc2F)CCN1C(=O)c1cccc(F)c1 (centres undefined) | 0 | -1

A different layout for some results above.
Fields – NPYLR7 agonist | NPYLR7 agonist max-min
COC(=O)C1CC(=O)N(Cc2ccc(OC)cc2)C1 (centres undefined)
  7 | 12
N[C@@H]1CC[C@@H](NS(=O)(=O)N2CCOCC2)C1
  6 | 4
CCC1CN(CCNC(=O)Cn2ncc3ccccc32)Cc2cc(OC)ccc2O1 (centres undefined)
  -6 | -8
Cc1c(C(=O)N(Cc2ccncc2)C2CCN(C)CC2)[nH]c2ccc(F)cc12
  2 | 1
COc1ccc2nc(-c3ccc(NC(=O)C4c5ccccc5Oc5ccccc54)cc3)cn2n1
  -7 | -12
CCCc1cn(CC2CCN(C(=O)C3COc4ccccc4C3)CC2)nn1 (centres undefined)
  -1 | -1

(list continues)
SMILES | NPYLR7 agonist | NPYLR7 agonist max-min
CCN1CCN(c2nc(CSc3ccccn3)cc(=O)[nH]2)CC1 | 2 | 1
O=C(N/N=C\c1ccco1)c1cc(-c2cccc(OCc3ccccc3)c2)n[nH]1 | -1 | -4
COc1ccc(CNC(=O)Cn2c(C)cc(C)c(C#N)c2=O)cc1 | -1 | -5
CCN1CCN(c2ncnc3sc4c(c23)CCC(C)C4)CC1 (centres undefined) | 0 | -1
N#CC(C(=O)C1CC2CCC1C2)c1nc2ccccc2[nH]1 (centres undefined) | 0 | 25
CCOC(=O)C=c1sc(=Cc2ccc(OC(F)F)cc2)c(=O)n1CC(=O)OC | 0 | 0
COc1ccc(C(=O)Nc2cccc(C3SCC(=O)N3c3cc(C)ccc3F)c2)cc1 (centres undefined) | -4 | 8
C=CCCC(O)CN(Cc1c(C)nn(-c2ccccc2)c1Oc1cccc(OC)c1)CC(C)C (centres undefined) | -5 | -4
c1ccc2sc(-c3nccn3CCCn3ccnc3)cc2c1 | 6 | -3
Cc1cnc(SCCN2CCOCC2)nc1C1CCCN(C(=O)Cc2c(F)ccc(F)c2F)C1 (centres undefined) | 16 | 12
CCn1c(SCc2ccc(C(=O)NCc3ccc4c(c3)OCO4)cc2)nnc1-c1ccccc1Cl | -10 | 0
CCCCn1ncc2c1NC(=O)CC2c1cn[nH]c1C1CCCCC1 (centres undefined) | 4 | 0
CC(=O)c1c(C)nn(-c2ccc(C(=O)NCc3ccccc3)o2)c1C | -3 | -12
CCOc1ccc(CN(Cc2cccc(C(F)(F)F)c2)Cc2nc(C(=O)NCc3ccco3)co2)cc1 | 19 | 29
CCN1C(=O)N(C2Cc3ccccc3C2)C(=O)C12CCN(Cc1cccn1-c1cccnc1)CC2 | 13 | -2
CC(C)c1nn(CC(N)=O)c(=O)c2c1cnn2-c1ccccc1 | 0 | -1
CCCCN(CC)C(=O)Cn1nc(CC)n2c(cc3occc32)c1=O | 5 | 2
CCc1ccc2nc(N3CCN(C(=O)C4CCCN4S(C)(=O)=O)CC3)sc2c1 (centres undefined) | 2 | 1
CN(Cc1ccccc1Cl)S(=O)(=O)c1ccc2c(c1)OCCCO2 | 0 | 5
c1nc(NCCN2CCOCC2)c2nc3n(c2n1)CCCCC3 | 6 | 0
CC(NC1CCCC1)c1ccco1 (centres undefined) | 13 | 6
CC(C(=O)N(C)C)N(C#N)c1nc(Cl)nc(N(C)C)n1 (centres undefined) | -2 | -1
Cc1cc(C)c(C(=O)N2CCN(C)C(C(=O)O)C2)c(=O)[nH]1 (centres undefined) | 1 | -1
CS(=O)(=O)NC(=O)c1ncoc1-c1ccccc1Cl | -26 | -28
CN(C)C(=O)C1CCN(CN2C(=O)C(=O)c3cc4c(cc32)OCCO4)CC1 | -1 | -4

The final 3 compounds of the part above lead into the next.
SMILES | NPYLR7 agonist | NPYLR7 agonist max-min
Cc1cc(C)c(C(=O)N2CCN(C)C(C(=O)O)C2)c(=O)[nH]1 (centres undefined) | 1 | -1
CS(=O)(=O)NC(=O)c1ncoc1-c1ccccc1Cl | -26 | -28
CN(C)C(=O)C1CCN(CN2C(=O)C(=O)c3cc4c(cc32)OCCO4)CC1 | -1 | -4
COCCN1CCN(C(=O)c2sc3ncnc(NCCc4ccccc4OC)c3c2C)CC1 | 3 | 2
Cc1cc(NC(=O)C2(C)CCN2C(=O)Cc2ccc(C(C)(C)C)cc2)sn1 (centres undefined) | 5 | 0
CNC(=O)c1cc2cc(Br)ccc2oc1=N | 4 | 2
O=C(Cc1ccccc1F)Nc1ccccc1Cl | 3 | 1
CCCc1nc(C)c2c(=O)[nH]c(-c3cc(S(=O)(=O)N4CCN(CC)CC4)ccc3OCC)nn12 | -1 | -6
CCCCN(C)c1c(C)nc2ccc(C(=O)NCCCN3CCCC3=O)cn12 | -7 | -11
CCCn1nccc1C(=O)N1CCC(O)(c2ccc3nc(C)ccc3c2)CC1 | 6 | 4
CCc1ccc(N2CC(C)Cn3c2nc2c3c(=O)[nH]c(=O)n2C)cc1 (centres undefined) | 8 | 2
CCn1c(C2CCN(C(=O)NC(C)(C)CC(C)(C)C)CC2)nn(C)c1=O | 3 | -5
O=C(CN1CCN(Cc2ccco2)CC1)Nc1ccc(CN2CCOCC2)cc1 | -1 | 21
COc1ccccc1NC(=O)CCCSc1ccc(NC(=O)C2CC2)nn1 | 0 | -1
CCOC(=O)C1(Cc2ccccc2F)CCCN(C(=O)c2coc3c2C(=O)CCC3)C1 (centres undefined) | 6 | 0
CCNC(=O)NC(=O)C(C)Sc1nc(C)nc2sc(C)c(C)c12 (centres undefined) | 3 | 4
CCOC(=O)c1ccccc1-n1c(=O)c2ccccc2n(Cc2nc(-c3ccc(C)cc3)no2)c1=O | 10 | 7
CC(=O)c1ccccc1C(=O)N(C)CCN1CCCC1 | -7 | -11
O=C(Cn1cnc([N+](=O)[O-])n1)N1CCCCC1 | -2 | -5
N=C1/C(=C/c2ccc3c(c2)OCO3)C(=O)N=C2SC(c3cccs3)=NN12 | 1 | 1
O=C(Nc1ccon1)c1csc2nc(-c3ccc(F)cc3)cn12 | 2 | 0
CN(Cc1ccccc1)C(=O)CCC1CCN(S(=O)(=O)N(C)C)CC1 | 10 | 2
CC(C)(C)c1nnnn1CCc1ccccc1Cl | 12 | 11
COC(=O)c1sc(-c2ccccc2Cl)cc1NC(=O)c1ccn(C)c(=O)c1 | 5 | 1
CC(C)CCN1CCN(Cc2ccc3nsnc3c2)CC1CCO (centres undefined) | -7&-1 | -9&-2
O=C(Cc1ccccc1)N(CCCn1ccnc1)c1nc2c(F)cccc2s1 | -15 | -20
COc1ccc(CN(C(C)C)S(=O)(=O)c2ccccc2)cc1OS(C)(=O)=O | -5 | 2
CS(=O)(=O)N(C[C@H]1O[C@@H](CC(=O)NC2CC2)[C@H](O)[C@@H]1O)C[C@H]1O[C@@H](CC(=O)NC2CC2)[C@H](O)[C@@H]1O | -9 | -19
Cn1cc(C#N)c(=O)n(Cc2cc(-c3ccc(Cl)cc3)no2)c1=O | 1 | -1
O=C(Nc1cccc(-c2cc3ccccc3[nH]2)c1)C1CCN(C(=O)C2CCOCC2)CC1 | 3 | 2
CCN(CC)CCCC(C)NC(=O)c1ccc(-c2cc(-c3cccc4c3OCCO4)[nH]n2)cc1 (centres undefined) | 25 | 14
COCC(=O)Nc1ccc(N2CCN(S(=O)(=O)c3cccs3)CC2)nc1 | 8 | 8
O=C(NCCCNC(=O)[C@H]1CCCN1C(=O)c1cccs1)c1ccc(F)cc1 | 12 | 18
